# Compound activity deposited in PubChem BioAssay by National Center for Advancing Translational Sciences (NCATS).
# RE007 growth inh: qHTS Assay for Inhibitors of the HIV-1 protein Vpr | S. pombe RE007 Vpr strain, BacTiter-Glo ATP luminescence, 24 h; control for the full effect not named in the record | Potency, µM (highest dose often 92.2 µM), inactives show at the top dose activity change, negative = less growth | 0.21% of 360,000 active; active = well fitted falling curve with a large enough effect; inconclusive = small, poorly fitted or top-dose-only effect; inactive = no such curve, though single readings can be large or run the other way;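 also: nearly all actives have a fitted effect of over 50% in size; the assay follows cell death caused by Vpr and the record does not say whether a fall means rescue or toxicity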
#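 Fission yeast strain RE007, carrying one chromosomally integrated HIV-1 vpr copy, was seeded at OD 0.01 in PMG+AL medium with 23 nL pinned compound. After 24 h at 30 °C and 99% humidity, viability was read by BacTiter-Glo luminescence.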
# 2A StopGo: High Throughput Screening for Foot and Mouth Disease Virus Antivirals; human cells with a luciferase reporter of 2A StopGo recoding; control for the full effect not named in the record; Potency, µM (highest dose often 57.9 µM), inactives show at the highest dose signal change, negative = less light; 1.2% of 410,000 active; active = well fitted falling curve with a large enough effect; inconclusive = small, poorly fitted or top-dose-only effect; inactive = no such curve, though single readings can be large or run the other way; tested in HEK293T cells; also: nearly all actives have a fitted effect of over 45% in size; luciferase light after 4 h
# * marks the source's active call; other numbers are inactive results; u = inconclusive; [ ] = dose if it differs, or a comment. % is scaled to controls: 0 for no effect and ±100 for the full control effect; potency is read from the fitted curve at half-maximal effect. Some of the compounds tested; the hit share may differ from the screen's.
# Below each SMILES: RE007 growth inh, 2A StopGo
- CCCS(=O)(=O)NC(=O)C1(C)CCCN(C(=O)c2cc(C)n(C(C)(C)C)n2)C1 (stereo not drawn)
    10%, 5%
- COc1ccc([C@H]2CN(CCc3ccccc3)C(=O)[C@@H]2CC(=O)Nc2ccccc2)cc1
    -8%, 122%[activator]
- c1ccc2sc(-n3cc(C4CCCCC4)nn3)nc2c1
    -18%, -9%
- Cc1ccsc1C(=O)N1CCC1(C)C(=O)NS(=O)(=O)c1cccc(F)c1 (stereo not drawn)
    -2%, -12%
- CC1=C(C(=O)N2CCOCC2)CC(CC(=O)NCCc2ccccn2)C(=O)N1CCCN1CCCC1=O (stereo not drawn)
    -3%, -21%
- COc1ccccc1C(CNC(=O)CN1C(=O)NC(C)(c2ccc3ccccc3c2)C1=O)N1CCCC1 (stereo not drawn)
    -17%, -23%
- O=C(OCc1cn([C@@H]2CN(C(=O)C3CCCCC3)[C@@H](c3ccc(Cl)cc3)C[C@H]2O)nn1)c1ccccc1
    1%, -2%
- Cc1cn(CC(=O)NCc2ccccc2)c(=O)[nH]c1=O
    3%, -18%
- COC(=O)c1ccc(N2C(c3cccc(OC)c3)=Cc3ccc(F)cc3C2c2c(C)[nH]c3ccccc23)cc1 (stereo not drawn)
    -9%, -22%
- NC(CCc1ccccc1)c1csc(Nc2ccc(C(=O)NCCCO)cn2)n1 (stereo not drawn)
    -6%, -1%
- CC1(C)OC(=O)C2=C(C[C@@H](CCOCc3ccccc3)O[C@H]2c2ccc(F)cc2)O1
    -9%, -24%
- COc1ccc(-c2csc(C(O)c3ccc(F)c(OC)c3)n2)cn1 (stereo not drawn)
    -18%, -25%
- COc1cc2cc(OC(C)=O)c3cc4c(cc3c2c(OC)c1OC)OCO4
    5%, -19%
- COC(=O)[C@@]1(Sc2ccc(C)cc2)CC(=O)N[C@@H]1c1ccc(Br)cc1
    -17%, 6%
- CCOC(=O)C1(C)CCCN(C(=O)c2cccc3ccccc23)C1 (stereo not drawn)
    -1%, 24%
- CCc1nc2c(OCCOc3ccccc3)cccn2c1N(C)C(=O)c1ccc(C)cc1
    -29%, -4%
- CCCCOCCCNC(=O)C[C@@H]1C[C@@]2(C(=O)OC)CCCCC=C2N(Cc2cccc3ccccc23)C1=O
    11%, -21%
- NS(=O)(=O)c1ccc(CCNC(=O)CSc2nc3ccsc3c(=O)n2Cc2ccccn2)cc1
    9%, 6%
- COCCNC(=O)C1(C)CCCN(C(=O)CCc2ccccc2)C1 (stereo not drawn)
    4%, -5%
- CC(=O)Nc1ccc2sn(-c3ccccc3)c(=O)c2c1
    5%, 25%
- COCCN1C[C@@H](CO)O[C@@H](n2cnc3c(N(C)C)ncnc32)C1
    -10%, 0%
- CN(C(=O)c1cccc(NC(=O)Cc2ccc(NC(=O)C3CCCN(C(=O)CCc4ccccc4)C3)cc2)c1)C1CCCCC1 (stereo not drawn)
    1%, 14µM*
- COc1ccc(CNC(=O)Nc2nnc([C@H]3C[C@H](O)[C@@H](CO)O3)s2)cc1
    -9%, -16%
- CC(OC(=O)C1COc2ccccc2O1)C(=O)c1ccccc1 (stereo not drawn)
    0%, -14%
- CCCCc1c(-c2ccccc2F)ncn1CCc1ccccc1OC
    -34%, u
- CC(C)(CN1CCCN(CC(C)(C)C(=O)O)C1=O)C(=O)O
    -2%, 0%
- CCNC(=O)C1CCCN(C(=O)c2ccc(C#N)cc2)CC1 (stereo not drawn)
    3%, -4%
- COC1OC2COC(c3ccccc3)OC2C2OC(c3ccccc3)OC12 (stereo not drawn)
    11%, -20%
- COc1ccc(S(=O)(=O)N2CCN(CC(=O)N3CCNC3=O)CC2)cc1OC
    7%, -18%
- CCO/C(C)=N/Oc1cccc(N(C)C)c1
    -17%, 35%[activator]
- CCN(CC)S(=O)(=O)c1ccc(Cl)c(C(=O)NNC(=O)c2csc(N3CCOCC3)n2)c1
    1%, -13%
- CCOC(=O)[C@]12CCC=C1N(CCC1=CCCCC1)C(=O)[C@H](CC(=O)NCc1cccs1)C2
    -11%, 28%
- CC(C)NC(=O)C1(C)Cc2c(-c3cccc(C(N)=O)c3)ccnc2O1 (stereo not drawn)
    -5%[18.4 µM], -15%
- Cc1cn(CC(=O)NCc2ccccn2)c(=O)[nH]c1=O
    23%, -8%
- Cc1ccc(CNC(=O)c2ccc(S(=O)(=O)N3CCCCCC3)cc2)cc1
    14%, -24%
- Cc1cc(Cl)ccc1C(=O)C1CCCN(C(=O)c2ccc3c(c2)OCO3)C1 (stereo not drawn)
    8%, -7%
- Cc1cccc(COC[C@H](CC(C)C)N2CCN(C(=O)c3ccc(C(C)(C)C)cc3)CCC2=O)c1
    27%, u
- CCCCNC(=O)C1c2ccccc2OCC(=O)N1CCCN1CCOCC1 (stereo not drawn)
    2%, -18%
- O=S1(=O)CCOC[C@H](Cc2ccccc2)N1Cc1ccccc1F
    -23%, -21%
- CC(C)(C)c1ccc(CC(=O)N2CCC2(C)C(=O)NS(=O)(=O)c2ccc(C#N)cc2)cc1 (stereo not drawn)
    6%[18.4 µM], -8%
- O=S1(=O)CC(N2CC=CC2)CN1Cc1cn(Cc2ccccc2)nn1 (stereo not drawn)
    -6%, -9%
- CC(NS(=O)(=O)c1cc2c3c(c1)CCN3C(=O)CC2)c1ccccc1 (stereo not drawn)
    12%, -10%
- CC1(C(=O)NS(=O)(=O)c2ccc(Br)cc2)CCN1C(=O)C1CCCCC1 (stereo not drawn)
    8%, -4%
- O=C(NCCCc1ccccc1)c1cccc(Br)c1
    -21%, 39%[activator]
- O=C1C=C(c2cccc3c2oc2ccccc23)CCC1
    -5%, 9%
- CCCNC(=O)c1cc2c(c(-c3cccc(-c4ccccc4F)c3)n1)[C@H](CCO)N(C(=O)CC1CC1)C2
    6%, -29%
- COC(=O)c1ccc[n+](CCc2c[nH]c3ccccc23)c1
    -8%, -16%
- CC(C)CN1Cc2cc(N3CCCCC3)ccc2-n2nncc2C1
    -11%, -15%
- CC1=C(C(=O)N(C)C)CC(CC(=O)NC2CC2)C(=O)N1Cc1ccc(C(C)(C)C)cc1 (stereo not drawn)
    1%, -1%
- COC(=O)C1=C(c2cccc(OC)c2OC)C[C@@H]2CC[C@H]1N2C(=O)NCc1ccccc1
    29%, 21%

# Two entries drawn at random from those above, as already listed:
# Below each SMILES: RE007 growth inh, 2A StopGo
- CC(C)CN1Cc2cc(N3CCCCC3)ccc2-n2nncc2C1
    -11%, -15%
- O=C(NCCCc1ccccc1)c1cccc(Br)c1
    -21%, 39%[activator]

# Following part.
# Below each SMILES: RE007 growth inh, 2A StopGo
- CC1(c2nnc(-c3ccccc3)o2)CC(c2ccc([N+](=O)[O-])cc2)=NO1 (stereo not drawn)
    2%, -11%
- CCC1(c2ccc(F)cc2)NC(=O)N(CC(=O)N2CCN(S(=O)(=O)c3ccc(C)cc3C)CC2)C1=O (stereo not drawn)
    2%, u
- COc1cccc(Cn2c(C(C)n3c(C)nc4ccccc43)nc3ccccc32)c1 (stereo not drawn)
    -25%, -15%
- O=C1C=C(c2ccc3[nH]ccc3c2)CCC1
    -15%, 55%[activator]
- O=C(NCCCN1CCOCC1)c1onc(CSc2ccccn2)c1C(=O)NCCCN1CCOCC1
    -9%, -13%
- CN(C)C(CNC(=O)c1cccc(S(=O)(=O)Nc2ccc(SC(F)F)cc2)c1)c1ccccc1 (stereo not drawn)
    2%, 33%[activator]
- CN(C)Cc1ccccc1CNC(=O)c1ccc(Cl)c(S(=O)(=O)NC2CC2)c1
    -2%, -15%
- CC(C)OC(=O)N(C)C[C@@H]1OCc2cnnn2CCCC(=O)N([C@@H](C)CO)C[C@@H]1C
    10%, -2%
- CCC(=C(c1ccc(O)cc1)c1ccc(OCCN(C)C)cc1)c1ccccc1
    -17%, -20%
- Cc1ccc(S(=O)(=O)N2CCC(=O)N([C@H](COCc3ccc(Cl)cc3Cl)Cc3ccccc3)CC2)cc1
    -14%, -19%
- C[C@@H]1CN([C@@H](C)CO)C(=O)c2cc(C#Cc3ccccc3)cnc2O[C@H]1CN(C)C(=O)c1ccccc1F
    -16%, u
- CC(C)CC#Cc1ccc2c(c1)O[C@H](CN(C)C(=O)Nc1ccccc1)[C@@H](C)CN([C@H](C)CO)S2(=O)=O
    -2%, 97%[activator]
- COc1cccc(CC2(CO)CCCN(Cc3ccc(OC(F)F)cc3)C2)c1 (stereo not drawn)
    -8%, -21%
- NC(=O)OCC(O)COc1ccc(Cl)cc1 (stereo not drawn)
    4%, 0%
- COc1ccc(CNC(=O)C2CCCN2C(=O)Nc2cccc(Cl)c2)cc1 (stereo not drawn)
    -8%, -13%
- CCNC(=O)C1CCCN(Cc2cc(C(F)(F)F)ccc2Cl)CC1 (stereo not drawn)
    0%, 0%
- COc1ccc(OC)c(NC(=O)Nc2nc(C(N)CCc3ccccc3)cs2)c1 (stereo not drawn)
    5%[18.4 µM], -21%
- Clc1ccc(-n2nnc(-c3ncc[nH]3)n2)cc1Cl
    11%, 51%[activator]
- Cc1ccc(C)c(C(O)c2ncc(-c3ccc4ccccc4c3)[nH]2)c1 (stereo not drawn)
    15%, 14%
- COc1ccc(-n2ncc3c(SCC(=O)OC(C)C)ncnc32)cc1
    1%, -22%
- C[C@H]1NC(=O)[C@]2(C)[C@@H](c3ccccc3)[C@H]3COc4ccccc4[C@@H]3N2C1=O
    10%, -20%
- CC(C)(C)c1ccc(S(=O)(=O)NC(=O)C2(C)CCN2C(=O)Cc2cccc3ccccc23)cc1 (stereo not drawn)
    -5%, -5%
- CCOC(=O)CNC(=O)N(C)[C@H]1C[C@H]2c3[nH]c4ccccc4c3CCN2C[C@H]1[C@H](C)O
    -10%, -10%
- CCNC(=O)C1(C)CCCN1C(=O)c1c(F)cccc1F (stereo not drawn)
    -9%[18.4 µM], -21%
- CC(C)Oc1cc(F)ccc1-c1cc(C(=O)NCc2ccccn2)[nH]n1
    -4%[18.4 µM], -23%
- CCNC(=O)C1(C)CCCN(Cc2cccc(Oc3ccccc3)c2)C1 (stereo not drawn)
    -18%, -22%
- COc1ccc(OC)c(S(=O)(=O)NC(=O)C2(C)CCN2C(=O)Cc2ccccc2)c1 (stereo not drawn)
    5%, -2%
- CC(C)(C)NC(=O)C(c1ccc(C(F)(F)F)cc1)n1c(=O)c(-c2cc3ccccc3[nH]2)nc2ccccc21 (stereo not drawn)
    -7%, -8%
- C[C@H]1CN([C@@H](C)CO)C(=O)CCCn2nncc2CO[C@@H]1CN(C)Cc1ccc(Oc2ccccc2)cc1
    -6%, -19%
- Cn1cnc(S(=O)(=O)N2CCCCC2c2cc(C(=O)NCc3ccc(Cl)c(Cl)c3)no2)c1 (stereo not drawn)
    2%, 0%
- O=C(Nc1ccc2c(c1)OCO2)c1cccc(S(=O)(=O)N2CCOCC2)c1
    4%, 17%
- CCOC(=O)C(C)N1CC(=O)N(c2ccccc2)C1=O (stereo not drawn)
    7%, -4%
- C[C@@H]1CN([C@H](C)CO)C(=O)c2c(c3ccccc3n2C)-c2ccccc2CO[C@@H]1CN(C)Cc1ccc(O)cc1
    -26%, -11%
- O=C(NCc1ccccn1)C1(C(F)(F)F)C/C(=C\CCO)CCCO1 (stereo not drawn)
    -1%, -1%
- CC1=C(C(=O)N2CCOCC2)CC(CC(=O)NC2CCCCC2)C(=O)N1CCCN1CCCC1=O (stereo not drawn)
    0%, -1%
- Cc1ccc(S(=O)(=O)N2[C@H](c3cccc(Cl)c3)CC(=O)[C@@H]3CN(S(=O)(=O)c4ccccc4C)[C@H](c4ccc(Cl)cc4)C[C@@H]32)cc1
    -6%, u
- CC(C)(CNC(=O)c1cccc(S(=O)(=O)N2CCCCC2)c1)N1CCOCC1
    -16%, -13%
- CC(C)c1cccc(-c2csc(C(C)(O)c3ccc(F)c(F)c3)n2)c1 (stereo not drawn)
    11%[18.4 µM], 1%
- Cc1cc(C)cc(Cn2cc(CN3CC(N(C)C)CS3(=O)=O)nn2)c1 (stereo not drawn)
    2%, -8%
- CC1CCN(c2nc3c(c(=O)[nH]c(=O)n3C)n2CCSc2ncccn2)CC1
    3%, -17%

# Quoted from the entries so far for reference:
# Below each SMILES: RE007 growth inh, 2A StopGo
- CC(C)(CNC(=O)c1cccc(S(=O)(=O)N2CCCCC2)c1)N1CCOCC1
    -16%, -13%
- CC(C)c1cccc(-c2csc(C(C)(O)c3ccc(F)c(F)c3)n2)c1 (stereo not drawn)
    11%[18.4 µM], 1%
- Cc1cc(C)cc(Cn2cc(CN3CC(N(C)C)CS3(=O)=O)nn2)c1 (stereo not drawn)
    2%, -8%
- CC1CCN(c2nc3c(c(=O)[nH]c(=O)n3C)n2CCSc2ncccn2)CC1
    3%, -17%

# Additional records:
# Below each SMILES: RE007 growth inh, 2A StopGo
- C[C@@H]1CN([C@@H](C)CO)C(=O)CCCn2nncc2CO[C@@H]1CN(C)S(=O)(=O)c1ccc(F)cc1
    3%, -7%
- CC(C)(C)NCC(O)COc1ccccc1C1CCCC1 (stereo not drawn)
    -6%[18.4 µM], -22%
- N#CC(c1ccc(N)cc1)C(CC(=O)c1ccccc1)c1ccccc1 (stereo not drawn)
    -9%, 26%
- CC(C)(C)OC(=O)N(Cc1ccccc1)Cc1cccc(OCc2cccc(NC(=O)c3ccccc3)c2)c1
    -17%, u
- C=CCOC(=O)Nc1nc(CCNC(=O)OC(C)(C)C)c(C(=O)OC)s1
    -3%, -22%
